Source: PubChem
Sa helicase inh: S. aureus DNA helicase inhibition; purified S. aureus helicase, fluorescence unwinding assay; about half of the hits fall short of the stated cut; inhibition, %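 (tested at about 80 µM)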; AID 485395; 0.05% of 120,000 active;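 active = both duplicates at 50% or more, or one of them with a favoured structure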;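 also: 0% = mean of negative control wells and 100% = mean of positive control wells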
MgrA-DNA mod: alters Staphylococcus aureus MgrA binding to DNA; fluorescence polarization; inhibition, %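 (about 10 µg/mL by stock and volumes)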; 0.13% of 84,000 active; AID 602314;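 active = above 50% in either of two replicates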;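 also: 0% = protein plus DNA without compound and 100% = DNA alone without protein; higher means less MgrA bound to DNA so lower polarization; one replicate is shown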
An asterisk follows results filed as active; nt = no result given; & = joins results of further samples.

SMILES	Sa helicase inh	MgrA-DNA mod
CCN(CC)C(=O)c1cnn(-c2ccccc2)c1-n1cccc1	18	nt
CCOC(=O)c1c(NC(=O)CCN2C(=O)/C(=C/c3ccc(F)cc3)SC2=S)sc2c1CCCC2	nt	-2.8
NC(=O)c1ccccc1NC(=O)CC12CC3CC(CC(Br)(C3)C1)C2	-11	0.0
O=C(O)C(C(=O)/C=C/c1ccc2c(c1)OCO2)=C1SCCS1	-9	-6.0
CCOC(=O)/C(C#N)=C/c1cn(CCC#N)nc1C	-12	nt
N/C(=N\OC(=O)c1cnc2n(c1=O)CCS2)c1ccc(C(F)(F)F)cc1	1	nt
CCOC(=O)c1cc2occc2n1CC	6	1.6
COc1ccc(S(=O)(=O)N2CCN(c3ccc(F)cc3)CC2)cc1C(=O)N1CCOCC1	-3	0.6
COC(Cn1c(-c2ccc(C)cc2)n[nH]c1=S)OC	11	nt
CC(O)CNc1nc2ccccc2n1-c1ncnc2sc3c(c12)CCC3 (stereo unspecified)	-14	nt
O=C(O)c1c(-n2cccc2)sc2c1CCC2	14	nt
O=C(CNc1ccc(Cl)cc1F)N1CCc2ccccc21	-10	nt

Random excerpt: 5 compounds from above, in no set order.
SMILES	Sa helicase inh	MgrA-DNA mod
O=C(CNc1ccc(Cl)cc1F)N1CCc2ccccc21	-10	nt
COC(Cn1c(-c2ccc(C)cc2)n[nH]c1=S)OC	11	nt
NC(=O)c1ccccc1NC(=O)CC12CC3CC(CC(Br)(C3)C1)C2	-11	0.0
O=C(O)c1c(-n2cccc2)sc2c1CCC2	14	nt
CCOC(=O)/C(C#N)=C/c1cn(CCC#N)nc1C	-12	nt

The listing continues.
SMILES	Sa helicase inh	MgrA-DNA mod
COc1ccc(Cl)cc1NC(=O)COC(C)=O	1	-1.4
S=C(Nc1ccccc1Cl)SCCSC(=S)Nc1ccccc1Cl	nt	1.4
Clc1ccc(-c2csc(=Nc3cccnc3)n2C2CC2)cc1	-10	nt
O=C(CN1C(=O)S/C(=C\c2c(Cl)cccc2Cl)C1=O)Nc1cccnc1	nt	1.1
O=C1CSC(=Nc2ccc(Cl)cc2)N1	-20&6	nt
CCCOc1cccc(C(=O)Nc2nnn(C)n2)c1	16	-3.3
CSc1nc(N)cc(=O)[nH]1	-28	nt
CN(C)C(=O)C(C)(C)Oc1cc(C(F)(F)F)n(C)n1	nt	-1.8
C=CCOc1ccccc1N	12	-0.8
O=C(COC(=O)c1cccc(S(=O)(=O)N2CCCC2)c1)Nc1ccc2c(c1)OCCO2	10	nt
Cc1ccc(-c2nnc(-n3cnc4cc(C)c(C)cc43)c3ccccc23)cc1	4	1.1
N#CC1=C(N)Oc2c(ccc3ccccc23)C1c1ccsc1 (stereo unspecified)	10	-1.0

Reprinted from the part before: 2 compounds, followed by the next part.
SMILES	Sa helicase inh	MgrA-DNA mod
Cc1ccc(-c2nnc(-n3cnc4cc(C)c(C)cc43)c3ccccc23)cc1	4	1.1
N#CC1=C(N)Oc2c(ccc3ccccc23)C1c1ccsc1 (stereo unspecified)	10	-1.0
c1ccc(-c2nn3c(CN4CCOCC4)nnc3c3ccccc23)cc1	0	2.1
C/C(=N\NC(=S)Nc1cccc(C)c1C)c1ccc(S(=O)(=O)NCc2ccco2)cc1	2	nt
CC1(C)CC(=O)C/C(=N\NC(=S)Nc2ccc(S(=O)(=O)N3CCOCC3)cc2)C1	-277	nt
CC(=O)Nc1ccc(-c2cn3cccc(C)c3n2)cc1	9	-1.0
C=CCOc1ccc2oc(=O)cc(C)c2c1	10	nt
O=C1OC(c2ccco2)=N/C1=C\c1cccc(Cl)c1Cl	8	nt
CCC1CCCCN1C(=O)CSc1nc2ccccc2s1 (stereo unspecified)	-1	-1.5
CC1CCCCN1S(=O)(=O)c1ccc(I)cc1 (stereo unspecified)	17	0.6
CCCCCC[C@@H]([C@@H](C)O)n1cnc2c(N)ncnc21	nt	1.4
CCOC(=O)/C(C)=N/Nc1cc(C)cc(C)c1	14	nt
COc1ccc(C)cc1NC(=O)c1cc2c(s1)CCC2	-8	-0.1
COc1ccc(NC(=O)CCC(=O)O)cc1OC	nt	-0.4
Cc1nc(C(F)(F)F)ccc1NC(=O)NCCNc1nccc(C(F)(F)F)n1	nt	-2.4
O=C(/C=N/Nc1nc2ccccc2o1)c1ccccc1	-7	nt
CSc1nnc2c(n1)OC(c1ccccc1F)Nc1ccccc1-2 (stereo unspecified)	nt	2.4
COc1ccc(CCNC(=O)c2ccc(Cl)c(Cl)c2)cc1OC	nt	-3.0
CN1CCc2c(c3ccccc3n2Cc2ccccc2)C1	-4	-0.8&-0.3&2.1
CC(=O)Oc1cccc(N2C(=O)C3C4C=CC(CC4)C3C2=O)c1 (stereo unspecified)	nt	3.2
Cn1cc(S(=O)(=O)CC(=O)N2CCOCC2)c2ccccc21	21	nt
O=C(CSc1nc(=O)n2ccccc2n1)Nc1ccccc1	-9	nt
S=c1[nH]nc(CN2CCCC2)n1-c1ccccc1	-25	nt
Cc1ccc(-c2nn(CCC#N)cc2C#N)cc1	9	4.9
CC(=O)Nc1ccc(C(C#N)c2ccccc2)cc1 (stereo unspecified)	12	-1.7
CC(C)(C)NC(=O)Nc1ccc(S(=O)(=O)N2CCCC2)cc1	-11	nt
O=C(CNS(=O)(=O)c1ccccc1)NCC1CCCO1 (stereo unspecified)	3	-2.0
CC(O)c1nc2ccccc2n1C(F)F (stereo unspecified)	-2	nt
O=C(NCCc1ccccc1)c1cc2c(ccc3ccccc32)o1	7	1.7
COc1ccc(NC(=S)NN)cc1Cl	6	nt
Cc1cc(Nc2ccccc2)n(C(C)(C)C)n1	1	-1.2
COC(CNC(=O)c1c[nH]c2ccc(S(=O)(=O)N3CCOCC3)cc2c1=O)OC	8	nt
Cc1nnc(N/N=C/C2CC=CCC2)[nH]c1=O (stereo unspecified)	34	nt
CC(NS(=O)(=O)c1ccccc1)C(=O)NCc1ccc2c(c1)OCO2 (stereo unspecified)	4	7.5
Cc1cccc(C(=O)Nc2ccc(S(=O)(=O)Nc3nc(C)cc(C)n3)cc2)c1	nt	-0.3
Cc1[nH]c2ccccc2c1C(=O)CN1CCCC1	-5	nt
O=C(O)CSCc1csc2c1CCCC2	-4	-1.0
CCNc1nc(NCC)n2c(SCC(=O)c3cccc(C(F)(F)F)c3)nnc2n1	7	nt
CN(c1ccccc1)S(=O)(=O)c1c[nH]c(=O)[nH]c1=O	9	nt
COc1ccc(C2NN(Cc3ccccc3)C3C(=O)N(Cc4ccccc4)C(=O)C23)cc1 (stereo unspecified)	-6	4.8
COC(=O)COc1ccc(S(=O)(=O)N2CCC(C)CC2)cc1	3	-0.7
O=C(CSc1ncnc2ccccc12)Nc1ccnn1C1CCCC1	7	nt
CCON1C(=O)c2ccccc2C1=O	-23	nt
CCN(CC)c1ccc(-c2n[nH]c(=S)n2-c2ccccc2C)cc1	-20	nt
CCCNC(=O)c1cnn2c(C)c(Cc3ccccc3)c(C)nc12	4	-0.1
Nc1ncc2c(n1)CC(c1ccccc1)CC2=O (stereo unspecified)	8	nt
Cc1ccc(C2c3c(oc4ccccc4c3=O)C(=O)N2c2ccccn2)cc1 (stereo unspecified)	-14	nt
O=C1NCCCC1C(=O)NCCc1c[nH]c2ccc(OCc3ccccc3)cc12 (stereo unspecified)	-1	-0.3
COc1cccc(Cc2nnc(-c3ccc(-c4cccs4)s3)o2)c1	nt	-3.2
Cc1ccc2nc(-c3cccc(-c4nc5ccc(C)cc5o4)c3)oc2c1	18	nt
CCOC(=O)N1CCN(CCC(=O)Nc2cc(OC)cc(OC)c2)CC1	21	nt
Cc1cccc(C(=O)NCCSc2c[nH]c3ccccc23)c1	-15	nt
Cc1cc(C)c2ccc(NC(=O)c3ccc(C(F)(F)F)cc3)nc2n1	nt	2.9
C/C(=N\NC(=O)c1ccccc1)c1ccccc1	16	nt
Cc1ccc(C)c(NC(=S)N(Cc2ccco2)C(C)c2ccco2)c1 (stereo unspecified)	-3	nt
c1ccc(-c2nnc(CSc3nnc(C4CCCCC4)o3)o2)cc1	-5	nt
Cc1ccc(-n2nc(C)c(C3(O)C(=O)N(CCC(C)C)c4ccccc43)c2N)cc1 (stereo unspecified)	9	-3.1
COc1cccc(NCc2nnc(SCc3nnc(-c4cc(C)oc4C)o3)n2C2CCCCC2)c1	-14	nt
COC(=O)c1cc2sccc2n1Cc1ccc(C)cc1	6	nt
CC1(C)CC(=O)C(C=NCCN2CCOCC2)=C(O)C1	-10	0.7
Cc1c(-c2ccccc2)sc(N)c1C#N	nt	24
CC1=CCC(Cc2nc3ccccc3o2)C1(C)C (stereo unspecified)	-8	-2.1
Later entries.
SMILES	Sa helicase inh	MgrA-DNA mod
COc1ccc(CN(C)CC(=O)NC(C)c2ccccc2)c(OC)c1 (stereo unspecified)	1	nt
CCC(C)C(NCc1c(O)ccc2c(C)cc(=O)oc12)C(=O)O (stereo unspecified)	1	5.4
Cn1c(O)c(/C=N/Nc2nc3ccccc3s2)c(=O)n(C)c1=O	-234	nt
O=C(CC1SC(=Nc2ccccc2)NC1=O)NC1CC1 (stereo unspecified)	14	nt
CCc1ccc2[nH]c3nc(C)cc(C)c3c(=O)c2c1	21	0.0
CCOc1ccc(NC(=O)NCc2cccn2C)cc1	9	-0.2
Cc1cccc(-c2noc(-c3ccc(F)cc3Cl)n2)c1	nt	-0.2
O=C(O)c1cnc(NCc2ccccc2)s1	nt	-3.6
CC1=Nc2cc(C(=O)NCCc3ccccc3)ccc2Sc2ccccc21	-10	0.8
C=CCn1c(=O)c2ccccc2n2nnc(C(=O)OCC)c12	nt	-0.2
C#CCOC(=O)Nc1cnc(N(C)C)c(C(F)(F)F)c1	-10	nt
C=C1Cc2c(Cl)cc3[nH]c4c5c3c2[C@@]2(O)[C@@H]1C[C@@H]2C(C)(C)O[C@H]5[C@@H]1CC[C@@]2(O)[C@@]35O[C@@H]3[C@@H](O)[C@@H](C(=O)O)O[C@H]5CC[C@]2(C)[C@@]41C	nt	1.1

Compound profiles (already shown). Order of values: Sa helicase inh, MgrA-DNA mod
Cc1ccc(-c2nnc(-n3cnc4cc(C)c(C)cc43)c3ccccc23)cc1 in the list: 4, 1.1
CCC1CCCCN1C(=O)CSc1nc2ccccc2s1 (stereo unspecified) in the list: -1, -1.5
C/C(=N\NC(=S)Nc1cccc(C)c1C)c1ccc(S(=O)(=O)NCc2ccco2)cc1 in the list: 2, nt

Going on with the list.
SMILES	Sa helicase inh	MgrA-DNA mod
CC(=O)NCCC(=O)N1C(=NCCc2ccccc2)SCC1(C)C	-6	nt
O=C(O)C1OC(c2cccc(Cl)c2)=NC12CC2 (stereo unspecified)	9	-0.8
CC(=O)Oc1ccc2c(c1)CCC1C2C(O)CC2(C)C(=O)CCC12 (stereo unspecified)	29	nt
O=C(NCc1ccccn1)C1CCC(CNS(=O)(=O)c2ccccc2)CC1 (stereo unspecified)	9	-0.8
Cc1ccc(CSc2nc3ccccc3c3nc(CCn4nc(C)cc4C)nn23)cc1	-2	1.2
O=C(Nc1ccnn1Cc1ccco1)c1cccnc1Sc1ccccc1	-5	nt
COc1cc(/C=C2/N=C(SCC(=O)c3ccccc3)N(c3ccccc3)C2=O)ccc1O	-23	nt
COc1ccc(Nc2c(C#N)c(C)nn2-c2ccccc2)cc1	21	-0.1
c1ccc(COc2c3c(nc4ccccc24)CCCC3)cc1	12	-3.0
O=C(O)c1ccc(NS(=O)(=O)/C=C/c2ccccc2)cc1	-14	nt
CC(C)(C)C(=O)Nc1nc(NC(=O)C(C)(C)C)nc(-c2ccccc2Cl)n1	nt	0.8
O=C(Oc1ccc(/C=N/n2cnnc2)cc1)c1ccco1	-4	nt
COc1ccccc1CN(C)C(=O)c1ccc2nc[nH]c2c1	-17	nt
O=C(CC1SC(=Nc2ccc(O)cc2)NC1=O)Nc1ccccc1 (stereo unspecified)	26	nt
Cc1cc(Nc2cc(C(F)(F)F)nc3c(Cl)cccc23)on1	nt	-1.4
O=C1CC2(CCCc3ccccc32)C(=O)N1CN1CCCCC1 (stereo unspecified)	nt	2.8
O=C(CN1CCC(c2nc(-c3ccncc3)n[nH]2)CC1)N1CCN(c2ccccc2F)CC1	-6	-0.1
COc1ccc(Sc2cnc3ccccc3n2)cc1	nt	-2.6
COC(=O)c1cc(=O)nc(NC(=O)Nc2c(-c3c(Cl)cccc3Cl)noc2C)s1	-14	nt
Cc1nnc(SCC(=O)c2c(C)[nH]c3ccccc23)s1	2	nt
Cc1cc(O)cc2oc(C(F)(F)F)c(-c3cnn(-c4ccccc4)c3)c(=O)c12	10	nt
Cc1cccc(OCCSC(N)=S)c1	6	-0.7
O=S(=O)(Nc1nc2ccccc2nc1NCc1ccco1)c1ccc(F)cc1	6	nt
O=C(CSc1cccc[n+]1[O-])N1CCCc2ccccc21	3	0.9
Cc1nn(-c2ccccc2)c2sc(-c3nc(=S)[nH][nH]3)cc12	-14	nt
O=C(COc1cccc(NC(=O)C(F)(F)C(F)F)c1)N1CCOCC1	-3	-1.3
Cc1nc(SCC(=O)N2CCCC2)c2c(C)c(C)sc2n1	-7	nt
Cn1cccc1C(C#N)c1ncc(C(F)(F)F)cc1Cl (stereo unspecified)	nt	1.8
Cc1coc2cc3oc(=O)c4c(c3cc12)CCC4	-15	nt
Cc1ccc(NC(=O)OC(C)(C)C)s1	9	-2.4
c1ccc(-c2cc(-c3ccccc3)on2)cc1	nt	-1.2
CCCN1C(=O)/C(=c2\sc3n(c2=O)C(c2ccccc2)C(C(=O)OCC)=C(C)N=3)c2ccccc21 (stereo unspecified)	nt	1.4
Cc1ccc2cc(C(c3nnnn3C3CCCC3)N3CCCc4ccccc43)c(=O)[nH]c2c1 (stereo unspecified)	8	-2.5
O=c1c(-c2ccc(Br)cc2)coc2cc(OC3OC(O)C(O)C(O)C3O)ccc12 (stereo unspecified)	nt	0.1
COCCNC(=O)c1cc2c(=O)n3cccc(C)c3nc2n(C)c1=N	16	nt
CCCn1c2ccc(C)cc2c2nnc(SCCN3CCOCC3)nc21	14	0.2

Only part of the results is shown; the hit share may differ from the screen's.
